MITF inh: MITF inhibition. AID 2240. TRPM1 promoter luciferase, luminescence, 24 h. inhibition, % (test concentration not listed). 0.28% of 37,000 active;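 active = most replicates at 85% or more, or half of them and the mean; inconclusive = half reach 85% but not the mean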;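 note: human melanocyte line stably carrying TRPM1 promoter luciferase reporter; 0% = vehicle wells and 100% = a positive control; the first replicate is given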
YB-1 expr inh: YB-1 expression inhibition; U2OS, qRT-PCR YB-1 vs CDIP delta delta Cp, 16 h; stronger effect = higher value; zero = DMSO, each unit about twofold; delta delta Cp (YB-1 minus CDIP) (test concentration not listed); 0.37% of 30,000 active;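 active = delta delta Cp rounded down to an integer at or above 3, about 3 SD of DMSO wells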;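 note: higher means less YB-1 transcript or more CDIP transcript relative to DMSO; stock transfer was 100 nL into about 100 µL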
Numbers without * were called inactive; ? = inconclusive; / = not tested or not shown. This is a subset; count on the stated rates, not on these rows.

SMILES	MITF inh	YB-1 expr inh
CCN(CC(=O)Nc1cccc(C(C)=O)c1)S(=O)(=O)c1ccc(Cl)cc1	4	/
COc1ccc(Cl)cc1NC(=S)NCCc1c[nH]c2ccccc12	-12	/
COc1cccc(CN2CCN(Cc3cccc([N+](=O)[O-])c3)CC2)c1OC	-32	/
Cc1ccc(S(=O)(=O)CCC(=O)Nc2cccc(Cl)c2)cc1	-2	/
CCOC(=O)c1cnc2c(C)cc(Cl)cc2c1NCCN1CCOCC1	-6	/
COc1ccc(NC(=O)CN(C)S(=O)(=O)c2cc(Cl)ccc2Cl)cc1OC	22	/
C[C@H](CO)N1C[C@H](C)[C@H](CN(C)S(=O)(=O)c2cccs2)Oc2ccc(NC(=O)Nc3ccc(C(F)(F)F)cc3)cc2CC1=O	21	/
COc1ccc([N+](=O)[O-])cc1NC(=O)CN(C)S(=O)(=O)c1ccccc1	-4	/
Cc1nn(CC(=O)NCc2ccccc2Cl)c(C)c1[N+](=O)[O-]	-21	/
CC1=C(C(=O)Nc2ccc(Cl)cc2)C(c2cccc(F)c2)n2nc(CCCO)nc2N1 (stereo not given)	-9	/
O=C(CSc1n[nH]c(-c2ccccc2)n1)Nc1cccc(C(F)(F)F)c1	48	/
CCOc1ccc(S(=O)(=O)NCc2ccccn2)cc1	9	/
CCOC(=O)c1nnn(-c2nonc2-n2cccc2)c1C	-11	/
Cc1ccc(S(=O)(=O)NCCSc2nnc(Nc3ccccc3)s2)cc1	34	/
CCOc1cc(S(=O)(=O)NCc2cccnc2)c(C)cc1C	-25	/
NC(=O)CSc1nc(-c2ccccc2)nc2sc3c(c12)CCCC3	-37	/
NS(=O)(=O)c1ccc(CCNC(=O)c2cc(-c3cccs3)nc3ccccc23)cc1	-10	/
O=C(CC1(O)C(=O)Nc2ccc([N+](=O)[O-])cc21)c1ccccc1 (stereo not given)	6	/
CCn1c(=O)c(C(=O)NCC2CCCO2)c(O)c2ccccc21 (stereo not given)	-44	/
O=C(CSC1CC(=O)N(c2ccc(F)cc2)C1=O)Nc1ccc(Br)cc1 (stereo not given)	-1	/
CC(C)(C)NC(=O)CSc1nnc(-c2ccccc2Cl)n1-c1ccccc1	7	/
COc1ccc(NC(=O)COc2ccc(CO)cc2OC)cc1	13	/
O=C(O)c1cccc(CSc2nc(-c3ccc(Cl)cc3)cc(C(F)(F)F)n2)c1	-8	/
O=C(NCCCN1CCCC1=O)Nc1ccc(Br)cc1	-57	/
O=C(COc1ccccc1)Nc1ccc([N+](=O)[O-])cc1O	36	/

Fetched by structure from the entries so far, 3 records:
SMILES	MITF inh	YB-1 expr inh
NS(=O)(=O)c1ccc(CCNC(=O)c2cc(-c3cccs3)nc3ccccc23)cc1	-10	/
CCn1c(=O)c(C(=O)NCC2CCCO2)c(O)c2ccccc21 (stereo not given)	-44	/
O=C(CC1(O)C(=O)Nc2ccc([N+](=O)[O-])cc21)c1ccccc1 (stereo not given)	6	/

Later entries.
SMILES	MITF inh	YB-1 expr inh
C=CCn1c(=O)c(C(=O)NCCO)c(O)c2ccccc21	-1	/
Cc1ccc(C(=O)COc2cccc(NC(=O)c3cccs3)c2)cc1C	7	/
Cc1ccc(S(=O)(=O)N(C)CCCc2nc3ccccc3[nH]2)cc1	4	/
Cc1ccc(-c2nn(CC(=O)NCCN3CCOCC3)c(=O)c3ccccc23)cc1	5	/
N#Cc1c(NC(=O)CN2CCN(Cc3ccccc3)CC2)sc2c1CCCC2	6	/
Cc1cc(C)c2oc(-c3ccc(NC(=O)COc4ccc([N+](=O)[O-])cc4)cc3)nc2c1	-27	/
N#Cc1c(NC(=O)Cn2c(=O)oc3ccccc32)sc2c1CCCC2	7	/
CN1CCN(Cc2nc(N)nc(Nc3ccccc3)n2)CC1	-5	/
CCn1c(SCC(=O)Nc2cccc3ccccc23)nnc1-c1ccc(Cl)c(Cl)c1	1	/
COc1cc(Cl)c(C)cc1NC(=O)CSc1nc2ccccc2s1	29	/
Cc1nnc(SCC(=O)N2CCC(c3noc4ccc(F)cc34)CC2)s1	-45	/
COC(=O)c1cccc(NC(=O)C(C)Oc2ccc3c(C)cc(=O)oc3c2)c1 (stereo not given)	-1	/
Cc1ccc(OCC(=O)Nc2sc(C)c(C)c2C(N)=O)cc1	-38	/
COc1ccc(CN2C(=O)C(O)(CC(=O)c3ccc4ccccc4c3)c3ccccc32)cc1OC (stereo not given)	12	/
Cn1cc(CNC(=O)c2cc(-c3ccc(Br)cc3)nc3ccccc23)cn1	-32	/
CCCN(Cc1cc2cccc(C)c2[nH]c1=O)S(C)(=O)=O	27	/
COC(=O)c1c(NC(=S)NC(C)c2ccncc2)sc2c1CCC(C)C2 (stereo not given)	19	/
O=C(CSc1nc2ccccc2o1)Nc1ccc(I)cc1	-15	/
Nc1nnc(SCCN2C(=O)c3ccccc3S2(=O)=O)s1	5	/
COc1ccc(NC(=O)C(=O)NCC(=O)Nc2ccccc2OC)cc1	-3	/
COc1ccc(NC(=O)CSc2n[nH]c(N)n2)cc1Cl	-10	/
CCOC(=O)c1c(NC(=S)Nc2nc(C)cc(C)n2)sc2c1CCCCCC2	-5	/
O=C(NCCN1CCOCC1)c1cc(-c2ccccc2)on1	-5	/
COc1ccc(OC)c(NC(=O)c2c(NC(=O)c3ccccc3)sc3c2CCC(C)C3)c1 (stereo not given)	-7	/
Cc1ccc([N+](=O)[O-])cc1N(CC(=O)Nc1ccc(Cl)cc1)S(C)(=O)=O	18	/

Compound profiles (already shown). Order of values: MITF inh | YB-1 expr inh
Cc1ccc(OCC(=O)Nc2sc(C)c(C)c2C(N)=O)cc1 in the list: -38 | /
COC(=O)c1cccc(NC(=O)C(C)Oc2ccc3c(C)cc(=O)oc3c2)c1 (stereo not given) in the list: -1 | /
Cn1cc(CNC(=O)c2cc(-c3ccc(Br)cc3)nc3ccccc23)cn1 in the list: -32 | /
O=C(NCCN1CCOCC1)c1cc(-c2ccccc2)on1 in the list: -5 | /
COC(=O)c1c(NC(=S)NC(C)c2ccncc2)sc2c1CCC(C)C2 (stereo not given) in the list: 19 | /

Next part
SMILES	MITF inh	YB-1 expr inh
Cc1cc(C)c(C)c(Oc2coc3cc(OC(=O)CCN4C(=O)c5ccccc5C4=O)ccc3c2=O)c1	-5	/
O=C(NCc1ccco1)c1cnsn1	5	/
COC(=O)Cn1c(=O)n(Cc2ccco2)c(=O)c2c3c(sc21)CCCC3	-14	/
Cc1ccc(NC(=O)CSc2nccc(C)n2)cc1	-10	/
CCOc1ccc(NC(=O)CC2C(=O)NCCN2C(=O)Nc2ccccc2)cc1 (stereo not given)	-28	/
CCOC(=O)c1c(NC(=O)CSc2cc(C)c3ccccc3n2)sc(C)c1C	12	/
O=C(Cn1cnc2ccccc2c1=O)Nc1ccc(S(=O)(=O)N2CCOCC2)cc1	-7	/
COc1ccc([N+](=O)[O-])cc1NC(=O)COc1ccc(Br)cc1Cl	9	/
CN(CC(=O)Nc1ccccc1[N+](=O)[O-])S(=O)(=O)c1ccccc1	-14	/
COC(=O)CNS(=O)(=O)c1ccccc1[N+](=O)[O-]	5	/
O=C(NCCOc1cccc(Oc2ccccc2)c1)c1cc(-n2cnnc2)ccc1Cl	-8	/
Cc1sc(NC(=O)c2cc(-c3ccccn3)nc3ccc(Cl)cc23)c(C(N)=O)c1C	53	/
CCOc1ccc(Cl)cc1CNCc1ccccn1	-15	/
Cc1nc(CSc2ncnc3sc(C)c(C)c23)cs1	-11	/
CCOC(=O)c1ccccc1NC(=O)C(C)Oc1cc(C)c(Cl)c(C)c1 (stereo not given)	-7	/
CC(C)N(Cc1nc(-c2ccccc2)no1)S(=O)(=O)c1ccccc1[N+](=O)[O-]	19	/
Cc1ccc(-c2nc(SCC(=O)c3ccccc3)n[nH]2)cc1	-48	/
O=C(CSc1n[nH]c(-c2ccncc2)n1)c1cccc([N+](=O)[O-])c1	-11	/
COC(=O)c1c(NC(=O)CN2C(=O)c3ccccc3C2=O)sc2c1CCC(C(C)(C)C)C2 (stereo not given)	-18	/
O=C(CSc1nnc(-c2ccccn2)n1-c1ccccc1)Nc1cc(C(F)(F)F)ccc1Cl	8	/
CN(CC(=O)Nc1ccccc1C#N)S(=O)(=O)c1ccccc1	24	/
Cc1sc(NC(=O)c2cc(-c3ccccc3)nc3ccccc23)c(C(=O)NCc2cccnc2)c1C	-14	/
O=C(CN1C(=O)c2ccccc2C1=O)Nc1ccc2c(c1)C(=O)NC2=O	-9	/
Cc1cccc(C)c1NC(=O)CSc1nc(O)cc(=O)[nH]1	16	/
CC(NS(=O)(=O)c1cc(Cl)ccc1Cl)C(=O)Nc1ccccc1 (stereo not given)	4	/
The listing continues:
SMILES	MITF inh	YB-1 expr inh
c1ccc(-c2cn3c4ccccc4n(CCN4CCOCC4)c3n2)cc1	-5	/
COc1cc(OC)cc(C(=O)Nc2ccc(S(=O)(=O)Nc3ncccn3)cc2)c1	-9	/
COc1ccccc1CNc1cc(-c2nn3c(C)nnc3s2)ccc1C	27	/
Cc1cc(=O)oc2cc(OC(C)C(=O)Nc3ccc(Cl)c(C(F)(F)F)c3)ccc12 (stereo not given)	34	/
COC(=O)COc1cccc(NC(=O)c2ccc(Cl)cc2)c1	7	/
Cc1ccc(S(=O)(=O)NCc2cccnc2)cc1	-18	/
O=C(CSc1nnc(-c2cccs2)n1-c1ccc(Cl)cc1)c1ccc(Cl)cc1	-7	/
O=[N+]([O-])c1ccc2nc(CSc3nc4ccccc4s3)[nH]c2c1	37	/
COc1ccc(S(=O)(=O)NCc2ccccn2)cc1C	-8	/
COC(=O)CSc1nnc2c3c4c(sc3nc(-c3ccccc3Cl)n12)CCCC4	26	/
Cc1ccc(C)c(NC(=O)CSc2nc(-c3ccccc3)cc(C(F)(F)F)n2)c1	-2	/
COc1ccccc1NC(=O)CSc1ncnc2sc(-c3ccccc3)cc12	?	/
COc1ccc(Cl)cc1NC(=S)NCCn1cc(Cl)cn1	11	/
COc1ccc(C(C)NC(=O)c2cc(-c3ccccn3)nc3ccc(Br)cc23)cc1OC (stereo not given)	55	/
O=C(COc1ccc2c(=O)c(-c3ccccc3)coc2c1)Nc1ccc(F)cc1	-8	/
Cn1c2ccccc2c2nnc(SCCN3CCCCC3)nc21	-2	/
CN(CC(=O)Nc1ncn[nH]1)S(=O)(=O)c1ccc(Br)cc1	-1	/
COC(=O)CSc1cc(C)nc(SC)n1	-6	/
O=C(NCCCN1CCOCC1)c1cnn2c(C(F)F)cc(-c3ccccc3)nc12	-22	/
O=C(CN1C(=O)CN(c2ccccc2)C1=O)Nc1ccccc1[N+](=O)[O-]	1	/
Cc1ccc(NC(=O)c2ccc(OC(=O)CN3C(=O)c4ccccc4C3=O)cc2)cc1	-74	/
COc1ccc(OC)c(S(=O)(=O)NCc2cccnc2)c1	-3	/
CCC1(C)Cc2c(sc3nnn(CC(=O)N(c4ccccc4)c4ccccc4)c(=O)c23)CO1 (stereo not given)	35	/
CS(=O)(=O)N(CC(=O)Nc1ccccc1C(=O)N1CCOCC1)c1ccc(F)c(Cl)c1	-21	/
CCn1c(SCC(=O)Nc2cccc(Br)c2)nnc1-c1ccco1	5	/
Next part
SMILES	MITF inh	YB-1 expr inh
COc1ccc(NC(=O)COc2nc(N(C)C)nc(N(C)C)n2)cc1	-19	/
N#Cc1c(NC(=O)Cn2c(=O)oc3ccccc32)sc2c1CCC2	1	/
Cc1cc(C)c2oc(-c3ccc(C)c(NC(=O)COc4ccc(Cl)cc4)c3)nc2c1	24	/
O=C(CSc1nnc(-c2ccco2)o1)Nc1cccc(Cl)c1	0	/
COC(=O)CNC(=O)c1cn(-c2ccccc2)nc1-c1cccc(Br)c1	-22	/
COc1ccc(OC)c(S(=O)(=O)N(C)CC(=O)N2CCN(c3ccccc3F)CC2)c1	-1	/
COc1ccc(NC(=O)C(=O)NCC(=O)Nc2ccc(C)cc2)cc1	-11	/
CCOC(=O)c1cccc(NC(=O)CSc2nc3ccccc3[nH]2)c1	31	/
O=C1c2ccccc2C(=O)N1Cc1cc(NS(=O)(=O)c2ccccc2)ccc1Cl	-8	/
CCn1c(SCC(=O)N2c3ccccc3Sc3ccccc32)nnc1-c1ccco1	-26	/
O=C(NCc1ccc(F)cc1)[C@H]1C[C@H]2C(=O)N3CCC[C@H]3C(=O)N2[C@H]1c1ccc(O)cc1	/	0.44
CC(C)(C)OC(=O)Nc1cccc(/C=N/NC(=O)CCCCCC(=O)Nc2ccccc2O)c1	/	-0.6
COCCOC(=O)N1C(=O)[C@@]2(c3cc(C#Cc4ccc(OC)cc4)ccc31)[C@H](C(N)=O)[C@H]1C(=O)O[C@H](c3ccccc3)[C@H](c3ccccc3)N1[C@@H]2c1ccc(OCCO)cc1	/	-0.32
C[C@H]1CN([C@@H](C)CO)C(=O)CCCn2nncc2CO[C@H]1CN(C)S(=O)(=O)c1ccc(C#N)cc1	/	0.39
C[C@@H]1CN([C@H](C)CO)C(=O)CCCn2cc(nn2)CO[C@H]1CN(C)C(=O)C1CC1	/	-0.0041
C[C@H]1CN([C@@H](C)CO)C(=O)CCCn2nncc2CO[C@@H]1CN(C)Cc1cccc(O)c1	/	0.015
O=C1N(Cc2ccccc2)Cc2ccccc2[C@H]2OC(c3ccc(OCCCO)cc3)=N[C@@]12Cc1ccccc1	/	-0.15
COc1ccc(OC(=O)N(C)C[C@@H]2OCc3cn(nn3)CCCC(=O)N([C@H](C)CO)C[C@H]2C)cc1	/	-0.24
C[C@@H]1CN([C@H](C)CO)C(=O)CCCn2nncc2CO[C@@H]1CN(C)S(=O)(=O)c1cccc(F)c1	/	0.47
C[C@H]1CN([C@@H](C)CO)C(=O)CCCn2cc(nn2)CO[C@@H]1CN(C)C(=O)Nc1ccc2c(c1)OCO2	/	-0.14
O=C(N/N=C/C=C/c1ccccc1)c1ccccc1O	/	-0.22
C[C@H]1CN([C@@H](C)CO)C(=O)CCCn2nncc2CO[C@@H]1CN(C)C(=O)c1ccc(N2CCN(C)CC2)cc1	/	-0.3
C[C@H](CO)N1C[C@H](C)[C@H](CN(C)C(=O)Nc2cccc3ccccc23)Oc2ncc(-c3cccc(F)c3)cc2C1=O	/	-0.27
C[C@H](CO)N1C[C@H](C)[C@H](CN(C)C(=O)Nc2ccccc2)Oc2ncc(Br)cc2C1=O	/	0.14

Screening results as filed in PubChem BioAssay.
